GIV-Gai inh = blocks GIV peptide binding to rat Galpha-i3; P08753; Galpha-i3/FITC-GIV peptide fluorescence polarization, 90 min; active compounds read low; scaled: aluminum fluoride 0%, vehicle 100%; percent of control (FP), % (no concentration beside the values); actives 0.42% (n = 210,000);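 active = replicate mean at 85% of control or lower, very high polarization wells dropped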;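 also: wells of about 15 µL received 100 nL stock; the first replicate is given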
Target sequence (P08753 whole entry, looked up): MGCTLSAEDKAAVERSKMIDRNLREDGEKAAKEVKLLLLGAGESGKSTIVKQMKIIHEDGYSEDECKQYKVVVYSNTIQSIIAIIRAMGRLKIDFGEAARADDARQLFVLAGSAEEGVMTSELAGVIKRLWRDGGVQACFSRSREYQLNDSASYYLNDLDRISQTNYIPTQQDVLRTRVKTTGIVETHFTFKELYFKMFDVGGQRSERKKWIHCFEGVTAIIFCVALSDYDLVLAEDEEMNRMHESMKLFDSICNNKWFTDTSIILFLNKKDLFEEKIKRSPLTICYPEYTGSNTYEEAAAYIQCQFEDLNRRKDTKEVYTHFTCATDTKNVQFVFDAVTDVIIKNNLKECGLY
Sa growth 42C = blocks Staphylococcus aureus growth; actives 0.53% (n = 170,000); S. aureus RN4220 growth, OD600, 20 h, 42 °C; active compounds read low; relative growth, % (test concentration not listed);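 active = growth at 42 °C up to 50% and 20 or more points under that at 30 °C, or under 10% at both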;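 also: 300 nL library stock went into each well; scaled to the means of positive and negative controls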
Sa growth 42C second temp = further read-out of Sa growth 42C, marked with its call; relative growth, %; measured here: growth at 30 °C;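 optical density after 20 h as mean of two plates; 100% = untreated growth and lower means inhibition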
Numbers without * were called inactive; · = no result given. This is a subset; count on the stated rates, not on these rows.

SMILES	GIV-Gai inh	Sa growth 42C	others
C[C@]12CCC(=O)C=C1CC[C@@H]1[C@@H]2CC[C@@]2(C)[C@H]1CC[C@]2(C)O	·	106.2	Sa growth 42C second temp=88.2
COc1ccc2c(c1)C1(CCN(S(=O)(=O)c3ccc(OC)c(OC)c3)C1)C(=O)N2C (stereo not given)	104.3	·
CCOc1ccc([C@H]2[C@H](C(=O)C34CC5CC(CC(C5)C3)C4)N3C=Cc4ccccc4[C@H]3C2(C#N)C#N)cc1	110.8	·
O=C1CN=C(c2ccc(Br)cc2)c2cc(Br)ccc2N1	112.0	·
O=[N+]([O-])c1ccccc1SC1CC2C(c3ccccc3)Nc3ccc(Cl)cc3C2C1Cl (stereo not given)	112.0	·
CCOC(=O)c1ccc2c(c1)C1C(Cl)C(Sc3ccccc3[N+](=O)[O-])CC1C(c1ccc(Cl)cc1)N2 (stereo not given)	109.8	·
CCOCCCNC(=O)N1CCC2(C1)C(=O)Nc1ccc(OC)cc12 (stereo not given)	106.5	·
Cc1ccc2c(c1)C1CN(C)CCC1N2C(=O)CCCCCN1C(=O)c2ccccc2C1=O (stereo not given)	108.4	·
O=C(CN1C(=O)CN=C(c2ccccc2)c2cc(Br)ccc21)N/N=C/c1ccccc1	108.2	·
CCNC(=O)N1CCC2(C1)C(=O)N(C)c1ccc(OC)cc12 (stereo not given)	102.6	·

Gathered by group, the entries above with a Cl atom
SMILES	GIV-Gai inh	Sa growth 42C	others
O=[N+]([O-])c1ccccc1SC1CC2C(c3ccccc3)Nc3ccc(Cl)cc3C2C1Cl (stereo not given)	112.0	·
CCOC(=O)c1ccc2c(c1)C1C(Cl)C(Sc3ccccc3[N+](=O)[O-])CC1C(c1ccc(Cl)cc1)N2 (stereo not given)	109.8	·

Next section:
SMILES	GIV-Gai inh	Sa growth 42C	others
O=C(OC1N=C(c2ccccc2Cl)c2cc(Br)ccc2NC1=O)c1cccnc1 (stereo not given)	107.8	·
O=C(Nc1cc(F)ccc1F)c1cccn(Cc2ccc(Br)cc2)c1=O	108.5	·
CC12CC[C@H]3[C@@H](CCC4(O)C[C@H](O)CCC34/C=N/NC(=O)c3ccc(Br)cc3)C1(O)CCC2C1=CC(=O)OC1 (stereo not given in full)	108.7	·
CC12CC[C@H]3[C@@H](CCC4(O)C[C@H](O)CCC34/C=N\NC(=O)c3ccccc3NC(=O)c3ccccc3Cl)C1(O)CCC2C1=CC(=O)OC1 (stereo not given in full)	117.0	·
O=C1Nc2ccccc2C(c2ccccc2)=NC1O (stereo not given)	114.9	·
O=C(COc1ccccc1F)N1CCN(Cc2cc(=O)n3nc(-c4ccccc4F)sc3n2)CC1	100.3	·
CC1(C)C2([N+](=O)[O-])CN3CN(C2)CC1([N+](=O)[O-])C3	102.6	·
COc1ccc(NC(=O)c2cccn(Cc3cccc(F)c3)c2=O)c(OC)c1	106.8	·
CC1C(C)C(OC(=O)CCl)(c2ccccc2)CCN1C (stereo not given)	109.3	·
CCC(=O)N1CCC2(C1)C(=O)Nc1ccc(OC)cc12 (stereo not given)	103.5	·
CCCCCCc1cc(O)c2c3c(c(=O)oc2c1)CCC(C)C3 (stereo not given)	106.7	·
Cc1ccc2c(c1)C1CN(C)CCC1N2C(=O)C1CC1 (stereo not given)	113.3	·
CCCCCCC(=O)OC1CC[C@@]2(C)C(=CCC3C2CC[C@]2(C)C(=O)CCC32)C1 (stereo not given in full)	109.8	·
CC(C)(C)c1ccc(C(=O)N/N=C/C23CC[C@@H](O)CC2(O)CC[C@@H]2[C@@H]3CCC3(C)C(C4=CC(=O)OC4)CCC23O)cc1 (stereo not given in full)	109.3	·
O=C(c1ccccc1)c1cc(Br)ccc1NC(=O)c1c(O)c2ccccc2[nH]c1=O	103.5	·
Cc1ccc(C2c3cccn3-c3ccccc3CN2C(=O)C(C)C)cc1 (stereo not given)	105.1	·
COC(=O)C1C2c3ccccc3O[C@]1(C)N=c1s/c(=C/c3ccc(OC)cc3)c(=O)n12 (stereo not given in full)	102.0	·
CC1CCC(c2nnnn2-c2cccc(Cl)c2)(N(C)C)CC1 (stereo not given)	108.2	·
OC1(c2ccc(Br)cc2)C[N+]2=C(CCCCC2)N1c1ccccc1 (stereo not given)	112.4	·
CC(C)N1CC(C)C(OC(=O)c2ccccc2)(c2ccccc2)CC1C (stereo not given)	117.2	·
CCCOc1cc(C)cc2oc(=O)c3c(c12)CCCC3	105.3	·
O=C1C2C3C=CC(O3)C2C(=O)N1c1ccc(Br)cc1 (stereo not given)	104.9	·
N#CC1=C(N)Oc2c(c(=O)oc3ccccc23)C1c1ccc(F)c(Br)c1 (stereo not given)	108.6	·
CC12CC[C@H]3[C@@H](CCC4(O)C[C@H](O)CCC34/C=N/NC(=O)c3ccccc3F)C1(O)CCC2C1=CC(=O)OC1 (stereo not given in full)	99.2	·
Cc1ccc(NC(=O)CCc2nc(C3=CCN(Cc4cccc(Cl)c4)CC3)no2)cc1F	109.1	·
C=CCOC(=O)C1=C(N)OC(C)=C(C(=O)OCCOC)C12C(=O)Nc1ccccc12 (stereo not given)	109.0	·
N#CC1=CN(c2ccc(F)c(F)c2)c2ccccc2S1(=O)=O	100.3	·
Cc1cc(NC(=O)c2cccn(Cc3cccc(F)c3)c2=O)ccc1Br	103.1	·
Cc1ccc(NC(=O)CCc2nc(C3=CCN(Cc4ccc(Cl)cc4)CC3)no2)cc1F	109.4	·
CC(C)n1c(C2CCCNC2)n[nH]c1=O (stereo not given)	105.6	·

Among those listed so far, these contain an NH in an aromatic ring.
SMILES	GIV-Gai inh	Sa growth 42C	others
O=C(c1ccccc1)c1cc(Br)ccc1NC(=O)c1c(O)c2ccccc2[nH]c1=O	103.5	·
CC(C)n1c(C2CCCNC2)n[nH]c1=O (stereo not given)	105.6	·

(listing goes on)
SMILES	GIV-Gai inh	Sa growth 42C	others
COC(=O)C1C2c3ccccc3O[C@]1(C)N=c1s/c(=C/c3cccc(I)c3)c(=O)n12 (stereo not given in full)	108.3	·
C#CCN1CCC2=C(C1)c1c(O)cc(C(C)CCCc3ccc(F)cc3)cc1OC2(C)C (stereo not given)	108.4	·
COC(=O)C1C(=O)N(C)C2(C)CC1c1ccccc1O2 (stereo not given)	121.0	·
COP(=O)(OC)C(NC(=O)c1ccc(C)cc1)C(Cl)(Cl)Cl (stereo not given)	108.8	·
COc1cc(/C=c2\sc3nc4cc(C)c(C)cc4n3c2=O)ccc1OC(=O)N(C)C	103.3	·
NC(=O)c1ccccc1NC(=O)c1cccn(Cc2ccc(Br)cc2)c1=O	102.0	·
Cc1ccc(NC(=O)c2c(O)c3ccccc3n(CCC(C)C)c2=O)c(Br)c1	104.1	·
O=C(NN1S(=O)(=O)c2ccccc2S1(=O)=O)c1nsnc1NCCCl	114.1	·
CCOC(=O)C1=C(N)Oc2c(c(=O)oc3ccccc23)C1c1ccc(Cl)c(Cl)c1 (stereo not given)	102.3	·
CS(=O)(=O)c1ccc(N2C=C(C#N)S(=O)(=O)c3ccccc32)cc1	105.3	·
COc1ccc(C2(CN)CCOCC2)cc1OC	122.8	·
O=C(Nc1ccc(Cl)c(Cl)c1)N1C[C@H]2C[C@@H](C1)c1cccc(=O)n1C2	116.3	·
CN1CCN(c2cc(N(C)CCO)c([N+](=O)[O-])c3nonc23)CC1	118.7	·
CC(C)OC(=O)N(c1ccccc1)P(=O)(OC(C)C)OC(C)C	109.9	·
COc1ccc2c(c1)C1(CCN(C(=O)NCC(C)C)C1)C(=O)N2C (stereo not given)	102.3	·
Cc1ccccc1OCC(=O)N1CCN(Cc2cc(=O)n3nc(-c4ccccc4)sc3n2)CC1	98.0	·
O=C1CC2OCC=C3CN4CCC56c7cc([N+](=O)[O-])ccc7N1C5C2C3CC46 (stereo not given)	108.6	·
CCOC(=O)C1=C(NC(=S)NC(=O)c2ccccc2)c2ccccc2CC12CCCCC2	108.5	·
COc1ccc2c(c1)C1(CCN(C(=O)NCC(C)C)C1)C(=O)N2 (stereo not given)	105.0	·
O=C(c1ccccc1)c1cc(Cl)ccc1NC(=O)c1c(O)c2ccccc2[nH]c1=O	96.8	·
CCCc1[nH]nc2c1C1(C(=O)Nc3ccc(Br)cc31)C(C(=O)OCC)=C(N)O2 (stereo not given)	105.1	·
FC(F)(F)c1cccc(-n2nnnc2C2(N3CCOCC3)CCCCC2)c1	106.4	·
COc1ccc2c(c1)C1(CCN(S(=O)(=O)c3ccc(OC)c(OC)c3)C1)C(=O)N2 (stereo not given)	101.1	·
COc1cc(C(c2c(C)[nH]n(-c3ccccc3)c2=O)c2c(C)[nH]n(-c3ccccc3)c2=O)cc(OC)c1OC	79.0*	·
CC12CC[C@H]3[C@@H](CCC4(O)C[C@H](O)CCC34/C=N/NC(=O)c3ccc(Cl)cc3Cl)C1(O)CCC2C1=CC(=O)OC1 (stereo not given in full)	99.8	·
O=C(CN1CCN(C(=O)COc2ccc(Cl)cc2)CC1)Nc1nnc(-c2ccccc2)s1	98.7	·
CCOc1ccc(NC(=O)N2CCC3(C2)C(=O)N(C)c2ccc(OC)cc23)cc1 (stereo not given)	103.9	·
CCOP(=O)(OCC)C(NC(=O)c1ccc(Cl)cc1)=C(Cl)Cl	105.3	·
O=C(CN1CCN(C(=O)COc2cccc(F)c2)CC1)Nc1nnc(-c2ccccc2)s1	102.8	·
COCC1=C(C(=O)OCc2ccccc2)C2(C(=O)Nc3ccccc32)C(C(=O)OC)=C(N)O1 (stereo not given)	99.9	·
COc1cc(C=C2C(=O)N(C)C(=O)N(C)C2=O)cc(Cl)c1OCCOc1ccc(C)cc1	113.2	·
COc1nc(OC)nc(N2CC3CC(C2)c2cccc(=O)n2C3)n1 (stereo not given)	106.5	·
COCCOC(=O)C1=C(C)OC(N)=C(C(=O)OCc2ccccc2)C12C(=O)Nc1ccccc12 (stereo not given)	103.5	·
COC(=O)CCCC(=O)N1CC2CC(C1)c1cccc(=O)n1C2 (stereo not given)	103.3	·
CCCC1=C(C(=O)OC)C2(C(=O)Nc3ccccc32)C(C(=O)OCC)=C(N)O1 (stereo not given)	105.9	·
O=c1cccc2n1CC1CC2CN(C(=S)NCc2ccccc2)C1 (stereo not given)	113.7	·
CCOc1ccc(N2C(=O)NC(=O)/C(=C\c3cc(OC)c(OC)cc3[N+](=O)[O-])C2=O)cc1	107.1	·
CCCCn1c(=O)c(C(=O)Nc2nc(CC(=O)OCC)cs2)c(O)c2ccccc21	106.5	·
CC12CC[C@H]3[C@@H](CCC4(O)C[C@H](O)CCC34/C=N/NC(=O)c3ccccc3Cl)C1(O)CCC2C1=CC(=O)OC1 (stereo not given in full)	95.6	·
Cc1ccc2c(c1)C1CN(C)CCC1N2C(=O)CN1CCCCC1 (stereo not given)	114.2	·

7 neighbouring entries from above:
SMILES	GIV-Gai inh	Sa growth 42C	others
COC(=O)CCCC(=O)N1CC2CC(C1)c1cccc(=O)n1C2 (stereo not given)	103.3	·
CCCC1=C(C(=O)OC)C2(C(=O)Nc3ccccc32)C(C(=O)OCC)=C(N)O1 (stereo not given)	105.9	·
O=c1cccc2n1CC1CC2CN(C(=S)NCc2ccccc2)C1 (stereo not given)	113.7	·
CCOc1ccc(N2C(=O)NC(=O)/C(=C\c3cc(OC)c(OC)cc3[N+](=O)[O-])C2=O)cc1	107.1	·
CCCCn1c(=O)c(C(=O)Nc2nc(CC(=O)OCC)cs2)c(O)c2ccccc21	106.5	·
CC12CC[C@H]3[C@@H](CCC4(O)C[C@H](O)CCC34/C=N/NC(=O)c3ccccc3Cl)C1(O)CCC2C1=CC(=O)OC1 (stereo not given in full)	95.6	·
Cc1ccc2c(c1)C1CN(C)CCC1N2C(=O)CN1CCCCC1 (stereo not given)	114.2	·

New compounds follow.
SMILES	GIV-Gai inh	Sa growth 42C	others
Cc1cccc(-n2nnnc2C2(N3CCCCC3)CCCCC2)c1	101.3	·
O/N=C1/C(=C\c2cccc(O)c2)N2CCC1CC2	107.5	·
CCOC(=O)C1=C(C)OC(N)=C(C#N)C12C(=O)Nc1ccc(Br)cc12 (stereo not given)	102.8	·
COc1ccc(-n2c(/C=C\c3cccc(Br)c3)nc3ccccc3c2=O)cc1	96.8	·
FC(F)(F)c1cccc(Nc2nc3nonc3nc2Nc2cccc(C(F)(F)F)c2)c1	110.2	·
COc1ccc2c(c1)C1(CCN(S(=O)(=O)c3ccc(F)c(C)c3)C1)C(=O)N2C (stereo not given)	104.4	·
CCOc1cccc(NC(c2ccccc2)P2(=S)OCC(C)(C)CO2)c1 (stereo not given)	119.7	·
COc1cc2c(cc1OC)C(C)=[N+](C)C(C)(C)C2	112.9	·
CC1=C(C(=O)OC(C)(C)C)C2(C(=O)Nc3ccccc32)C(C(=O)OC(C)(C)C)=C(N)O1 (stereo not given)	103.4	·
N#CC1=C(N)Oc2c(c(=O)oc3ccccc23)C1c1ccccc1OC(=O)c1cccs1 (stereo not given)	105.6	·
N#CC1=C(N)Oc2c(c(=O)oc3ccccc23)C1c1cc(Br)cs1 (stereo not given)	117.8	·
Cc1cccc(OCC(=O)N2CCN(Cc3cc(=O)n4nc(-c5ccccc5)sc4n3)CC2)c1	105.9	·
COc1cc(C2C(C#N)=C(N)Oc3c2c(=O)oc2ccccc32)cc(OC)c1OC (stereo not given)	106.5	·
CCOc1ccc(-n2c(=S)[nH]c3ccc(Br)cc3c2=O)cc1	103.6	·
OCC1OC(Oc2ccc(Br)cc2)C(O)C(O)C1O (stereo not given)	114.8	·
CCCCn1c(=O)c(C(=O)Nc2nc3ccc(Cl)cc3s2)c(O)c2ccccc21	104.5	·
COC(=O)COc1cc(C)cc2oc(=O)c3c(c12)CCCC3	107.5	·
COCCOC(=O)C1=C(N)OC(C)=C(C(C)=O)C12C(=O)Nc1ccccc12 (stereo not given)	102.8	·
CCOC(=O)C1=C(N)OC2=C(C(=O)CC(C)(C)C2)C12C(=O)Nc1ccc(Br)cc12 (stereo not given)	105.0	·
CC1CN(C2(n3nnc4ccccc43)CCC(C(C)(C)C)CC2)CC(C)O1 (stereo not given)	108.4	·
COc1ccc(OCC(=O)N2CCN(CC(=O)Nc3nnc(-c4ccccc4)s3)CC2)cc1	98.3	·

High-throughput results: PubChem, ICCB-Longwood Screening Facility, Harvard Medical School
